# MLL AF4-AF9 inh = MLL-AF4/AF9 protein interaction inhibition; AlphaScreen, biotin-AF4 peptide binding to FLAG-AF9; 0.47% of 350,000 active; P42568; inhibition, % at 10 µM;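 active = every replicate reaching a set inhibition limit, whatever the replicate mean, cut at about 25% in these data; inconclusive = mean inhibition reaches that limit but some replicates miss it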;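 note: 0% = plate neutral control median and 100% = total signal loss; the record names both 10 and 1 µM as test concentration; the first replicate is given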
# Target sequence (P42568 whole entry, looked up): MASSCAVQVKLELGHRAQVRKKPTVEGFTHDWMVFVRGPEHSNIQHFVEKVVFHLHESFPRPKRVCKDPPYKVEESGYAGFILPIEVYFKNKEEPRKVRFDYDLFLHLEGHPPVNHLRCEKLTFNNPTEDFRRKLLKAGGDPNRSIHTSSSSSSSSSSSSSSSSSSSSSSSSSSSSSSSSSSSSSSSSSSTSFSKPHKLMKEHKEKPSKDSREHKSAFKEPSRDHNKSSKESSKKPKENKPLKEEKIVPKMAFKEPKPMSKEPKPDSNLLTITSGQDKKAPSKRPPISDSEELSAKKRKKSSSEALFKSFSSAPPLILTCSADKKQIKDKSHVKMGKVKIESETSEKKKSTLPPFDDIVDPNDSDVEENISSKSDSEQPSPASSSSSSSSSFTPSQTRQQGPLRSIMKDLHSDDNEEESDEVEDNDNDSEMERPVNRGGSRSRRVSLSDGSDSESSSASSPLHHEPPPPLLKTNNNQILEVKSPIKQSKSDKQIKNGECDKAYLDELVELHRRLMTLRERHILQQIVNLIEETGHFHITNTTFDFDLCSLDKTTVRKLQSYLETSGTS
# HNF4A DNA FP = change in binding of human HNF4 alpha to DNA; P41235; HNF4a-FITC DNA binding, fluorescence polarization, 1 h; activity change, % at 10 µM; 0.3% of 360,000 active; in the data active = activity change above about 30%, passing the limit was not always enough;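 note: controls were the assay level and a saturating level of protein; the project sought stronger binding though the title names inhibitors; some compounds called inactive have numbers as strong as hits; positive values seem to mean higher polarization but the record does not say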
# ALR inh = blocks human ALR sulfhydryl oxidase activity; purified ALR, DTT oxidation, H2O2 HRP-luminol luminescence; inhibition, % (no concentration beside the values); 3.8% of 290,000 active;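 active = mean and each replicate at 75% or more; inconclusive = only one of the two met; inactive = neither met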;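 note: stock transfer was 7.5 nL into about 7.5 µL; 0% = neutral wells and 100% = wells with inactivated enzyme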
# Target sequence (P55789 whole entry, looked up): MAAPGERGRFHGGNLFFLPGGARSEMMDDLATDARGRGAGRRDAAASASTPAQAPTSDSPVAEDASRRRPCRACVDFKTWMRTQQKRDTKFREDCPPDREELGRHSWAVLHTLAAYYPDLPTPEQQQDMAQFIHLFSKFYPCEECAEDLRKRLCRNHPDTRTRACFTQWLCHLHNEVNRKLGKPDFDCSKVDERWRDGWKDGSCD
# FGF22 binding = shifts melting point of recombinant human FGF22. Q9HCT0. recombinant FGF22 thermal shift, SYPRO orange fluorescence; percent of sucrose octasulfate shift, DMSO zero. calls only at 9.99 µM. 1.5% of 340,000 active. AID 651658;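 active = melting point raised past a set limit in the mean and every replicate; inconclusive = no clear call; three in four hits are not shown here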
# Target sequence (Q9HCT0 whole entry, looked up): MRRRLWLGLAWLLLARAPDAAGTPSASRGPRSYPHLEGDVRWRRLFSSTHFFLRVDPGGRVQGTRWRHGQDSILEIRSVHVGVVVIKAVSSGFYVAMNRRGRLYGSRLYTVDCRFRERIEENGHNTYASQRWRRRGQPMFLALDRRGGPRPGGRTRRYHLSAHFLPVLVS
# Ecoli rRNA inh = inhibitors of bacterial rRNA selective over humanized ribosomes; 1.6% of 350,000 active; E. coli WT GFP vs humanized-ribosome RFP mutants, fluorescence, 24 h; active compounds read low; DMSO median 0, no signal -100; GFP signal change (wild-type ribosome), % (concentration not given with the values);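 active = significant combined selectivity score with lowered wild-type GFP, culture density cut under 30%, mutant RFP and density less affected; inactive = any of these conditions unmet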; note: one replicate is shown; some compounds called inactive have numbers as strong as hits
# Vif TR-FRET = inhibitors of Vif binding to APOBEC3G peptide, primary screen, biochemical, TR-FRET, GST-Vif 1-94, biotin-A3G peptide, dose response retest (AID 1117319); TR-FRET GST-Vif / biotin-A3G peptide binding; higher % means a stronger effect; test concentration not given here; strong numbers were not always called active; inhibition, %; hits with a dose series show IC50 in µM; 0.57% of 260,000 active;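 active = above the screen mean plus three standard deviations and confirmed in dose response; inconclusive = results disagree or hit not tested in dose response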;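 note: Vif residues 1-94 fused to GST binding biotinylated APOBEC3G peptide 110-148; 0% = full assay without inhibitor and 100% = GST in place of GST-Vif; retest series ran down from 100 µM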
# E coli growth = blocks Escherichia coli growth | OD600, 23 h; active compounds read low | OD600 absorbance (concentration not given with the values) | 0.21% of 330,000 active | AID 1053175;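 active = OD600 absorbance below the run mean of sample wells minus 3.6 SD, in any replicate, cut at about 0.56 in these data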;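 note: stock transfer was 300 nL into about 60 µL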
# Ecoli rRNA inh OD600 = also measured in Ecoli rRNA inh; calls as there; OD600 change, %; measured here: OD600 growth;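 optical density of the mix in the first replicate; 0 = DMSO median and -100 = no signal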
# Ecoli rRNA inh RFP = also measured in Ecoli rRNA inh; calls as there; RFP signal change, %; measured here: RFP humanized mutant strains;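 first replicate; 0 = DMSO median and -100 = no signal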
# The depositor's hits bear a star; i = inactive; u = inconclusive; x = not tested or not shown; + = active, no number. This is a subset (hit frequency here may not be typical).
SMILES	Vif TR-FRET	FGF22 binding	MLL AF4-AF9 inh	HNF4A DNA FP	E coli growth	ALR inh	Ecoli rRNA inh RFP	Ecoli rRNA inh OD600	Ecoli rRNA inh
Cc1cccc(-n2c(SCC(N)=O)nc3c(c2=O)C2(CCCCC2)Cc2ccccc2-3)c1	11%	x	x	-0.8	0.73	3	x	x	x
O=C(C[C@@H]1CC[C@@H]2[C@H](COC[C@@H](O)CN2S(=O)(=O)c2cccc(F)c2)O1)Nc1ccc(-c2ccccc2)cc1	x	+	0.6	x	x	x	14	-26	3
O=C(CN1CCN(c2ccccc2)CC1)N1CCc2ccccc21	1%	i	2.2	2.5	0.68	71	3.0	-1	0
O=C(c1cccs1)N1CCN(Cc2ccccn2)CC1	1%	i	-8.6	-1.0	0.71	-4	-0.1	11	8
O=C(CN1CCOc2ccccc21)NCc1ccccc1	1%	i	0.2	-3.9	0.69	98*	1.0	7	8
Cc1cccnc1NC(=O)CSc1nnc(CNC(=O)c2cccc([N+](=O)[O-])c2)n1C	x	i	0.0	1.5	0.72	-6	1.2	16	14
CCOc1cccc2cc(C(=O)Oc3ccc(OC)cc3)c(=O)oc12	x	i	0.1	-5.9	0.66	-10	-1.2	1	4
CN(C1CCCCC1)S(=O)(=O)c1ccc(NC(=O)c2ccco2)cc1	-1%	x	x	-0.7	0.78	-11	x	x	x
Cc1ccc(OCC(=O)N(C)CC(=O)Nc2ccccc2Cl)c([N+](=O)[O-])n1	-6%	i	1.4	-0.4	0.7	-3	-1.7	-6	12
Cc1ccc(Cn2c(C3CCCN3c3nc(-c4ccc(F)cc4)cs3)nc3cc(C(=O)NCCCO)ccc32)cc1 (configuration not stated)	x	i	-7.7	-4.0	0.66	15	-2.9	13	10
COc1ccc(-n2c3c(c(=O)[nH]c2=O)C(NC(C)=O)(C(F)(F)F)C(=O)N3)cc1 (configuration not stated)	5%	i	1.8	2.9	0.69	-1	-1.9	5	4
O=C(CSc1nc(-c2ccccc2)c(-c2ccccc2)o1)Nc1nncs1	25%	x	x	0.2	0.66	29	x	x	x
Cc1ccc(S(=O)(=O)NC(C)c2ccccc2)cc1[N+](=O)[O-] (configuration not stated)	x	i	4.8	0.9	x	-28	-1.4	0	5
CCCOc1ccc(CCN2CCC(=O)NC2=O)cc1C	6%	x	x	4.5	0.74	1	x	x	x
Cc1noc(C)c1NC(=O)Nc1ccc2c(c1)C(=O)N(C)[C@H]1CC[C@@H](CC(=O)NCc3ccc(Cl)cc3)O[C@@H]1CO2	x	i	-0.2	x	x	x	-1.1	2	1
COCC(=O)N1C[C@@H](C)[C@@H](OC)CN(C)C(=O)c2cc(NC(=O)c3ccc(F)cc3)ccc2OC[C@@H]1C	x	i	-0.6	x	x	x	-1.2	1	1
CCCCC(=O)Nc1cccc(-c2csc(-c3ccccc3)n2)c1	-13%	i	-1.6	0.5	0.71	x	-1.4	-20	-21
COc1ccc(CNC(=O)c2cc(-c3ccccc3OC)on2)cc1	0%	i	2.1	-1.6	0.71	-10	-4.7	-13	4
FC(F)(F)c1ccc(-n2cn[nH]c2=S)cc1	0%	i	x	-2.2	0.7	4	4.3	14	3
CN(C)CC(=O)N[C@H]1CC[C@H](CCNC(=O)C2CCC2)O[C@H]1CO	x	i	-2.2	x	x	x	0.5	7	1
COc1ccc(C(C)=O)cc1COc1ccccc1[N+](=O)[O-]	-5%	i	-13	-5.8	0.71	-18	-13	22	5
CN(C(=O)COC(=O)c1ccccc1OCc1ccc(Cl)cc1)c1c(N)n(Cc2ccccc2)c(=O)[nH]c1=O	-5%	i	-1.4	0.2	0.68	-26	-1.2	0	10
O=C(NC(=S)Nc1ccc(CN2CCOCC2)cc1)c1ccc(-c2ccc(Cl)cc2)o1	-15%	i	-0.2	x	0.67	8	1.4	-1	-4
C[C@@H]1CCCCO[C@@H](CN(C)S(=O)(=O)c2ccccc2)[C@H](C)CN([C@H](C)CO)C(=O)c2cc(NC(=O)CCC(F)(F)F)ccc2O1	x	i	-0.3	x	x	x	3.2	-25	0

# 12 successive records out of the list so far:
SMILES	Vif TR-FRET	FGF22 binding	MLL AF4-AF9 inh	HNF4A DNA FP	E coli growth	ALR inh	Ecoli rRNA inh RFP	Ecoli rRNA inh OD600	Ecoli rRNA inh
Cc1cccc(-n2c(SCC(N)=O)nc3c(c2=O)C2(CCCCC2)Cc2ccccc2-3)c1	11%	x	x	-0.8	0.73	3	x	x	x
O=C(C[C@@H]1CC[C@@H]2[C@H](COC[C@@H](O)CN2S(=O)(=O)c2cccc(F)c2)O1)Nc1ccc(-c2ccccc2)cc1	x	+	0.6	x	x	x	14	-26	3
O=C(CN1CCN(c2ccccc2)CC1)N1CCc2ccccc21	1%	i	2.2	2.5	0.68	71	3.0	-1	0
O=C(c1cccs1)N1CCN(Cc2ccccn2)CC1	1%	i	-8.6	-1.0	0.71	-4	-0.1	11	8
O=C(CN1CCOc2ccccc21)NCc1ccccc1	1%	i	0.2	-3.9	0.69	98*	1.0	7	8
Cc1cccnc1NC(=O)CSc1nnc(CNC(=O)c2cccc([N+](=O)[O-])c2)n1C	x	i	0.0	1.5	0.72	-6	1.2	16	14
CCOc1cccc2cc(C(=O)Oc3ccc(OC)cc3)c(=O)oc12	x	i	0.1	-5.9	0.66	-10	-1.2	1	4
CN(C1CCCCC1)S(=O)(=O)c1ccc(NC(=O)c2ccco2)cc1	-1%	x	x	-0.7	0.78	-11	x	x	x
Cc1ccc(OCC(=O)N(C)CC(=O)Nc2ccccc2Cl)c([N+](=O)[O-])n1	-6%	i	1.4	-0.4	0.7	-3	-1.7	-6	12
Cc1ccc(Cn2c(C3CCCN3c3nc(-c4ccc(F)cc4)cs3)nc3cc(C(=O)NCCCO)ccc32)cc1 (configuration not stated)	x	i	-7.7	-4.0	0.66	15	-2.9	13	10
COc1ccc(-n2c3c(c(=O)[nH]c2=O)C(NC(C)=O)(C(F)(F)F)C(=O)N3)cc1 (configuration not stated)	5%	i	1.8	2.9	0.69	-1	-1.9	5	4
O=C(CSc1nc(-c2ccccc2)c(-c2ccccc2)o1)Nc1nncs1	25%	x	x	0.2	0.66	29	x	x	x

# Additional results follow.
SMILES	Vif TR-FRET	FGF22 binding	MLL AF4-AF9 inh	HNF4A DNA FP	E coli growth	ALR inh	Ecoli rRNA inh RFP	Ecoli rRNA inh OD600	Ecoli rRNA inh
CC(C)NC(=O)N1C[C@H]2[C@@H](c3ccccc31)[C@H](CO)N2Cc1ccccc1	x	i	-0.2	x	x	x	-3.2	2	-1
C[C@@H]1CN([C@@H](C)CO)C(=O)Cc2cc(NS(=O)(=O)c3ccc(Cl)cc3)ccc2O[C@@H]1CN(C)Cc1ccc(Cl)c(Cl)c1	x	i	-1.9	x	x	x	0.1	-1	0
CCC(=O)N1[C@@H]2c3ccc(-c4ccccc4)c(=O)n3C[C@H]1[C@H](CO)[C@H]2C(=O)N1CCc2ccccc2C1	x	i	-4.9	x	x	x	0.8	1	-1
O=C(CNC(=S)NC(=O)c1cccc([N+](=O)[O-])c1)c1ccccc1	-4%	i	1.1	3.0	0.72	-6	-1.7	-3	-9
O=C(C1CCC1)N1CCc2cc(S(=O)(=O)NCCCN3CCCCC3)ccc21	-1%	i	-3.0	2.1	0.68	-5	-1.4	12	4
CCOc1ccc(CN(C)CC(=O)c2c(N)n(Cc3ccccc3)c(=O)n(CC)c2=O)cc1OC	30%	x	x	0.2	0.77	-1	x	x	x
C[C@@H]1CN([C@H](C)CO)C(=O)c2cc(NS(=O)(=O)c3ccc(F)cc3)ccc2O[C@@H](C)CCCCO[C@@H]1CN(C)C(=O)CCCN(C)C	x	i	1.0	x	x	x	0.0	8	4
ONC(=Nc1ccccc1)c1ccc(Cl)cc1	12%	x	x	-2.0	0.67	65	x	x	x
CNC[C@H]1Oc2c(NC(=O)Nc3ccc(F)cc3)cccc2C(=O)N([C@@H](C)CO)C[C@@H]1C	x	i	-1.5	x	x	x	-3.0	4	1
C[C@H](NS(=O)(=O)c1ccc2c(c1)OCCCO2)C(=O)N1CCN(Cc2ccc(C#N)cc2)CC1	-12%	i	0.5	0.6	0.69	-8	0.4	-9	2
COCC#Cc1ccc2c(c1)O[C@@H](CN(C)Cc1ccccn1)[C@H](C)CN([C@H](C)CO)S2(=O)=O	x	i	0.1	x	x	x	-2.1	-13	-9
CC(C)OCC(O)Cn1c(N2CCCC2)nc2c1c(=O)n(C)c(=O)n2C (configuration not stated)	x	i	-1.4	-0.9	0.66	4	19	-1	0
COc1ccc(/C=N/NS(C)(=O)=O)c(OC)c1	0%	i	1.5	3.7	x	20	x	x	x
CC(C)(C)C(=O)NCCc1nc(-c2ccccc2)no1	x	x	x	1.1	0.67	10	x	x	x
Cc1nc2sc(C(N)=O)c(N)c2c2c1CCCC2	-6%	i	-1.9	3.1	0.7	-3	1.6	6	16
CCOC(=O)N1CCN(Cc2nc3cc(NC(=O)CC)ccc3n2C)CC1	-6%	i	0.8	-0.6	0.69	2	-4.8	14	15
CCOC(=O)C(C)(C)Sc1nc2c(cnn2-c2ccc(C)cc2)c(=O)[nH]1	5%	x	x	0.7	0.75	-5	x	x	x
C[C@@H]1CCCCO[C@@H](CN(C)Cc2ccc3c(c2)OCO3)[C@H](C)CN([C@@H](C)CO)C(=O)c2cc(NC(=O)Nc3ccccc3)ccc2O1	x	i	8.9	x	x	x	4.2	-5	2
CCc1nc2scc(-c3cccs3)c2c(=O)o1	11%	x	x	-2.7	0.7	1	x	x	x
O=C(NCCc1c[nH]c2ccc(Cl)cc12)c1ccc([N+](=O)[O-])cc1	18%	i	5.4	-0.7	0.74	0	9.3	23	13
Cc1csc2ncnc(NCCc3ccccn3)c12	-1%	i	-13	-2.5	0.66	-2	-3.2	12	0
COCC(=O)Nc1nnc(COc2ccc(Cl)cc2)s1	4%	x	x	-1.2	0.72	-18	x	x	x
CCOc1ccc(-n2cnc3sc(C)c(C)c3c2=O)cc1	x	i	-6.1	-0.2	0.72	0	2.0	7	15
Cc1sc(NC(=O)C2C3CCC(C3)C2C(=O)O)c(C(N)=O)c1-c1ccc(C(C)(C)C)cc1 (configuration not stated)	3%	i	-1.5	-1.3	0.7	x	-6.2	3	-1
CCN(CC)S(=O)(=O)c1ccc(C)c(NC(=O)Cc2ccc(S(=O)(=O)N3CCOCC3)s2)c1	x	i	1.4	-1.6	0.73	-4	2.7	-2	1
Cc1nc(CC(=O)NNS(=O)(=O)c2ccc(F)c(Cl)c2)cs1	0%	x	x	-1.6	0.71	0	x	x	x
C[C@@H]1CN([C@H](C)CO)C(=O)c2cc(NC(=O)NC3CCCCC3)ccc2O[C@@H](C)CCCCO[C@@H]1CN(C)C(=O)CCC(F)(F)F	x	i	2.2	x	x	x	-0.4	1	0
NS(=O)(=O)c1ccc(NC(=O)Nc2cccc(Cl)c2)cc1	u	+	2.3	1.6	0.54	-6	-2.0	-5	-19

# Screening data: PubChem BioAssay, several laboratories
